hNpr1 antagonist = Natriuretic polypeptide receptor (hNpr1) antagonism - Primary qHTS. 1.6% of 76,000 active. Atrial natriuretic peptide receptor 1 (Homo sapiens), P16066. Potency, µM (top dose mostly 46.3 µM), inactives show top-dose activity change, negative = inhibition, hits mostly inhibitors. HEK293 hNpr1 GloSensor cGMP, ANP-stimulated luminescence; active = well fitted inhibition curve with a large enough effect; inconclusive = small, poorly fitted or top-dose-only effect; inactive = no such curve, though single readings can be large or run the other way;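 also: nearly all actives have a fitted effect of over 60% in size; nearly all hits also lower the signal before the agonist is added; a reference antagonist and vehicle were the controls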
Target sequence (P16066 whole entry, looked up): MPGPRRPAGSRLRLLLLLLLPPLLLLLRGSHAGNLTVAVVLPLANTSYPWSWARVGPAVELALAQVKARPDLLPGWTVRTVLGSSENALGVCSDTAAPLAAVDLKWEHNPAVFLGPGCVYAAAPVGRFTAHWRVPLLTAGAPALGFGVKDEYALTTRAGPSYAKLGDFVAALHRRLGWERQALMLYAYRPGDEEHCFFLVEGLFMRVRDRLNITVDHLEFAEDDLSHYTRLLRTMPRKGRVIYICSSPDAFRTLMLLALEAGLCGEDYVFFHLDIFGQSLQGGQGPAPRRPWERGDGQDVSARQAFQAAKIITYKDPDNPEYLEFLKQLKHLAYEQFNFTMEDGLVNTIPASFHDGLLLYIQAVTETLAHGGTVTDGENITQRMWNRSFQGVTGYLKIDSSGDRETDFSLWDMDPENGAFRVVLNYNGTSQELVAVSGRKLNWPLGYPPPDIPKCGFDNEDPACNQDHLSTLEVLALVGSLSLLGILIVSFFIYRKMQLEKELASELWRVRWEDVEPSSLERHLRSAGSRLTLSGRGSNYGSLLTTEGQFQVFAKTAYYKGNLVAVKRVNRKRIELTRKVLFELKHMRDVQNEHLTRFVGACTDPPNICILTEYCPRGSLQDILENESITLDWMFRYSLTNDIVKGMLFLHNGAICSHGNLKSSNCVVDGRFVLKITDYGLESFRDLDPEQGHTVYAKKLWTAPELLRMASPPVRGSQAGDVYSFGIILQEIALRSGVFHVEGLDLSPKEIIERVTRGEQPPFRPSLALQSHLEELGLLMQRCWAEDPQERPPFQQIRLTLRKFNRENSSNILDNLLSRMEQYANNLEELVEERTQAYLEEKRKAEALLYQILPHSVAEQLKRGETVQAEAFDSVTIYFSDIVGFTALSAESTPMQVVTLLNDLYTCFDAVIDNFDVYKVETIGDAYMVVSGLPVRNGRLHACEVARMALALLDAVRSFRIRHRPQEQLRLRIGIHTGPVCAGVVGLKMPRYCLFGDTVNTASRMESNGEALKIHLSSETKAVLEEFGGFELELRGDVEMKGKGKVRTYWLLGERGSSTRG
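Compound pre-incubated 30 min at room temperature on GloSensor-loaded HEK293 cells stably carrying hNpr1 and the pGS-40F cGMP biosensor. Stimulation uses hNppA at 0.1 nM final; luminescence is taken at baseline and 20 min post-agonist.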
Numbers without * were called inactive; ? = inconclusive; & = joins results of further samples; [ ] = dose if it differs, or a comment. % is scaled to controls: 0 for no effect and ±100 for the full control effect; potency is read from the fitted curve at half-maximal effect.

SMILES	hNpr1 antagonist
COC[C@@H]1CN(c2cnccn2)C[C@H]1C(=O)N1CCc2ccccc2C1	0%
Cc1nnn2c(C(=O)NCc3ccc(Cl)nc3)cccc12	-1%[70.6 µM]
COc1ccc(Cl)cc1NC(=O)N(C)CC1CCOCC1	-2%
Cc1cc2cc(C(=O)N3CCC4(CCCN(CC5CC5)C4)C3)ccc2o1 (configuration not stated)	6%
COc1cccc(C(=O)N2CCC(C(=O)N[C@@H]3CCOC[C@H]3OC)CC2)c1	7%
O=C(NCc1ccccc1)C1(CCO)CCN(c2ncccn2)C1 (configuration not stated)	-4%
CC(C)OCCCNC(=O)C1CCCN(c2nc3ncccc3o2)C1 (configuration not stated)	2%
CCCNC(=O)N[C@@H]1C[C@H](Cn2cc(COC)nn2)[C@@H](O)[C@H]1O	2%[70.6 µM]
COc1cc(CN2C[C@@H](CO)[C@H](c3nc(C)no3)C2)ccc1F	0%
Cn1cnc(C(=O)N2CCCC(c3nc(-c4cccnc4)no3)CCNC(=O)CC2)c1 (configuration not stated)	4%
COCCO[C@H]1C(=O)N(C2CCN(C(=O)C3CCOCC3)CC2)[C@H]1c1ccncc1	-1%
CC(C)c1noc(-c2cn(C3CCN(C(=O)c4ccc(F)c(F)c4)C3)nn2)n1 (configuration not stated)	?
CC1=C[C@@H](CNC(=O)C2CC2)[C@H](C(C)C)C[C@H]1Cc1nnc(-c2ccccc2F)o1	-27%[70.6 µM]
COCC(=O)NC1CCC12CCN(C(=O)COc1ccccc1)CC2 (configuration not stated)	4%
COc1ccc(CC(=O)N2CC[C@H]3CC(=O)N(CCN4CCNC4=O)CC[C@H]3C2)cc1	1%[70.6 µM]
Cn1nnnc1C1CCCN(C(=O)CCc2ccccc2)C1 (configuration not stated)	-2%
COc1ccc2[nH]c3c(c2c1)CCN(C)C31CCN(C(=O)COc2ccc(F)cc2)CC1	-16%
O=S(=O)(C1CC1)N1CC[C@@](O)(c2ccccc2)[C@H]2CCCC[C@@H]21	-19%
COC[C@@H]1CCCN1Cc1cn(-c2ccccc2C)nc1-c1ccc(OC)c(F)c1	4%
COCCc1noc([C@@H]2CC(F)(F)CN2C(=O)C2CC=CC2)n1	6%
COc1ccccc1OC1(C(=O)O)CCN(Cc2ccc(-c3ccn[nH]3)o2)CC1	4%
O=C(c1ccc(F)cc1Cl)N1CCC2(CC1)NC(=O)N(c1ccccc1Cl)N2	0%
CN1CCN(C(=O)[C@H]2C[C@@](C)(C(=O)O)N(C)[C@H]2c2ccc(Cl)cc2)CC1	7%
O=C(c1ccccc1-n1cccn1)N1CCc2c(nc[nH]c2=O)C1	4%
Cn1cc(NC(=O)CC[C@H]2NC(=O)c3ccccc3NC2=O)cn1	2%
Remaining list, next part
SMILES	hNpr1 antagonist
O=C(NCCCn1cccn1)C1Cn2cccc2C(=O)N1Cc1ccccc1 (configuration not stated)	-9%
CN(C)C[C@@H]1CN(c2ncccn2)C[C@H]1NC(=O)c1nn(C)c2ccccc12	-4%
Cc1ccc(NC(=O)c2ccc(N3CC4CC(C3)[C@H]3CCCC(=O)N3C4)nc2)cc1 (some centres not stated)	1%
O=C(c1ccc2c(c1)OCO2)N1C[C@@H](CO)[C@H](c2nc(C3CC3)no2)C1	7%
O[C@@H]1C[C@@H](c2nc(-c3ccncc3)no2)N(Cc2cccs2)C1	4%[70.6 µM]
COc1ccc(C(=O)N[C@@H]2CCC[C@@H]2C(=O)NCc2cc(OC)cc(OC)c2)cc1	-1%
Cc1cccc(-c2noc([C@@H]3Cc4nc[nH]c4CN3C(=O)c3ccccc3C(=O)O)n2)c1	4%[70.6 µM]
CN1C(=O)CC[C@]2(C(=O)N3CCCCCC3)CCCC[C@@H]12	-8%
S=C(NC1CCCCC1)N[C@H]1CO[C@H]2[C@@H]1OC[C@@H]2n1nnnc1Oc1ccc(-n2ccnc2)cc1	?
COC(=O)CNC(=O)c1nc(-c2cccc(C(F)(F)F)c2)c2ccccn12	-3%
OC1(CN2CCC(CCn3cccn3)CC2)CCNC1 (configuration not stated)	0%
Cc1ncsc1C1N(C2CCN(C(=O)c3ccncc3)CC2)C(=O)C12CCCC2 (configuration not stated)	-3%
Cc1cc(=O)n(CC(=O)Nc2ccc(F)c(Cl)c2)c(N2CCOCC2)n1	-13%
CCn1cc(S(=O)(=O)N2CCC(c3noc(COC)n3)C2)cn1 (configuration not stated)	5%
Cc1nnc([C@@H]2CC(F)(F)CN2S(=O)(=O)c2cccnc2)o1	2%
Cn1cc(CC(=O)N2CCCc3ncc(C(=O)NCCc4ccccc4)cc32)c2ccccc21	-4%
CCOc1cc(=O)n2c(c1C(=O)NCc1cccc(F)c1)CCCCC2	6%
CS(=O)(=O)N1CCc2ccc(C(=O)Nc3ccc(Oc4ccccc4)cc3)cc21	1.6µM*
Cn1cnnc1CC1CCCN(S(=O)(=O)c2ccc3c(c2)C(C)(C)C(=O)N3)C1 (configuration not stated)	-2%
CCOc1cc(-c2nc(C3CC(=O)N(c4ccc(Cl)cc4)C3)no2)cc(OCC)c1OCC (configuration not stated)	-2%
COCCn1ncc(N2CCC(C(=O)NCc3ccc(OC)c(OC)c3)C2)cc1=O (configuration not stated)	11%
Cc1noc(C)c1CC(=O)N1CCC(Cc2noc(-c3ccccc3)n2)C1 (configuration not stated)	-4%
O=C(Nc1ccc(Oc2ccccc2)cc1)N[C@H]1CO[C@H]2[C@@H]1OC[C@@H]2n1nnnc1Oc1ccc(-n2cncn2)cc1	-25%
N#Cc1ccc(C(=O)N2C[C@@H](Oc3ccccc3)C[C@H]2C(=O)NC2CC2)cc1	1%
CCOc1cc(=O)n2c(c1C(=O)NCc1cc(OC)ccc1OC)CCCC2	3%
The listing continues.
SMILES	hNpr1 antagonist
CCNC(=O)[C@@H]1C[C@H](NC(=O)c2ccc(CC)s2)CN1C1CCOCC1	-2%
O=C(c1ccn[nH]1)N1C[C@@H](COc2cccnc2)[C@H](c2ccncc2)C1	0%
O=C([C@@H]1C[C@H](F)CN1C(=O)c1ccc(C(F)(F)F)cc1)N1CCCCC1	4%
O=C1N(Cc2cccc(F)c2F)CCCC1(O)CNCc1ccccc1 (configuration not stated)	3%
O=C(O)C1(Oc2ccc3ncccc3c2)CCN(c2cnccn2)CC1	-2%
CC(C)C[C@@H]1N[C@H](C(=O)NCC2CC2)Cc2cn(Cc3cccnc3)c3cccc1c23	-28%[70.6 µM]
COc1ccc(S(=O)(=O)NC[C@H]2COCc3nc4cc(C)ccc4n32)cc1	16µM*
CCNC(=O)N1CCC(c2noc(-c3ccncc3)n2)C1 (configuration not stated)	4%
COCCN1CCC(N2CCN(C(=O)C3CC3)CC2)C1=O (configuration not stated)	0%
CN1C(=O)[C@@H]2C[C@@H](CN2Cc2ccnc3ccccc23)Oc2ccccc21	-29%[70.6 µM]
COc1ccccc1CCC(=O)N1CCC2(CC1)N(c1ccccc1)C(=O)CS2(=O)=O	2%
COCc1nc(N2CCN(c3ccc(OC)cc3)CC2)ncc1C(=O)O	4%
CN1c2cc(C(=O)Nc3ccc(Br)cc3)ccc2C(=O)N2CCCCC21 (configuration not stated)	-3%
O=C1c2c(nc(COc3ccccc3)n2Cc2ccccc2)NCCN1CC1CC1	-15%[70.6 µM]
Cc1cccc(C(=O)N2CCCC(c3nn(-c4ccc(F)cc4)c(=O)[nH]3)C2)c1 (configuration not stated)	-2%
Cc1cccc(CNC(=O)c2cc3n(n2)CC(c2ccc4c(c2)OCO4)OC3)c1 (configuration not stated)	-5%
CS(=O)(=O)N1CCC(OC2CCN(C(=O)c3cccnc3)CC2)CC1	4%
COc1cc(OC)cc(-c2onc(C)c2C(=O)NCc2cccc(C)c2)c1	3%
Cc1ccc(OCC(=O)N2CCC(N3CC4CC(C3)[C@H]3CCCC(=O)N3C4)CC2)cc1 (some centres not stated)	-14%
Cn1nccc1C(=O)N1CCC2(CC1)CC(N(Cc1ccccc1)C1CC1)CCO2 (configuration not stated)	-17%
COC(=O)CNC(=O)c1nc(-c2c(C)cccc2C)c2ccccn12	0%&8%
CC(=O)Nc1ccc(S(=O)(=O)NC[C@@H]2C=C(C)[C@H](CC(=O)NCCN3CCOCC3)C[C@H]2C(C)C)cc1	-8%
CC(C)NC(=O)C[C@@H]1C[C@H]2O[C@H](CNC3CCC3)[C@@H](O)[C@H]2O1	4%[70.6 µM]
Cn1ncc(N2CCCC(CC(=O)Nc3ccc(Cl)cc3)C2)cc1=O (configuration not stated)	4%
CN(C)C(=O)c1cccnc1OC1CCN(S(=O)(=O)c2ccc3c(c2)CCC3)C1 (configuration not stated)	-14%
Next section:
SMILES	hNpr1 antagonist
Cc1cccc(-c2noc([C@@H]3Cc4nc[nH]c4CN3C(=O)CCC(=O)O)n2)c1	2%[70.6 µM]
O=C(c1cc(F)ccc1F)N1CCN(c2nnc3ccc(Cl)cn23)CC1	3%
COc1ccc(-c2cc(N3CCCC3)nc(N)n2)c2ccc(C)nc12	3%
CN(CCO)C[C@@H]1CN(C(=O)c2nc3ccccc3[nH]c2=O)C[C@@H]1CO	5%
Cc1ccc(C2=NC3(CCN(C(=O)c4ccc(F)c(Cl)c4)CC3)ON2)cc1	2%
COc1ccc(-c2nnc(C[C@@H]3C[C@@H](C(C)C)[C@H](CNC(=O)c4cnccn4)C=C3C)o2)cc1	2%
CCC(C(=O)N1CCc2cn(CCOC)c3cccc(c23)C1)c1ccccc1 (configuration not stated)	-9%
O=C1NCCCCCCN(C(=O)c2cccnc2)[C@H]2CCC[C@@H]12	6%
Cc1ccc(Cl)cc1NC(=O)Nc1cccc(-c2ccc(N3CCOCC3)nn2)c1	-23%
CC(C)C[C@H](NC(=O)Cn1nc2c(cc1=O)CCCCC2)c1nnc2ccccn12	5%
COCC1CN(C(=O)CCc2c(C)nn(C)c2C)CC12CCNCC2 (configuration not stated)	4%
CS(=O)(=O)c1ccc(OC[C@H]2C[C@@H](NC(=O)C3CCOCC3)[C@H](O)[C@@H]2O)cc1	6%[70.6 µM]
COCC1CN(C(C)=O)CC12CCN(Cc1ccc(Cl)cc1)CC2 (configuration not stated)	3%
COc1ccc(C(=O)N2CCCN(c3cc(-c4ccc(Cl)cc4)[nH]n3)CC2)cc1F	?
CC1=C[C@@H](CNC(=O)c2ccnc(Cl)c2)[C@H](C(C)C)C[C@H]1Cc1nc2ccc(C)cc2[nH]1	?
CN1Cc2ncnc(NCCc3ccccc3)c2CN(C2CCC2)C1=O	0%[70.6 µM]
CN1CCc2c([nH]c3ccccc23)C12CCN(C(=O)c1ccnn1C)CC2	0%
CC(C)c1ccc(CN2CCCC(O)(CNCCN3CCNCC3)C2=O)cc1 (configuration not stated)	3%
CNC(=O)[C@@H]1C[C@H](Oc2ccccc2)CN1C(=O)CCc1nc(-c2ccccc2)no1	3%
CC(O)CCNS(=O)(=O)c1ccc2c(c1)CN(C(=O)c1ccon1)CC2 (configuration not stated)	2%
O=C(NCc1ccccc1)c1cnc2n1CCN(Cc1ccccc1O)CC2	-21%[70.6 µM]
O=C(Nc1ccc(-c2nnc3n2CCCC3)cc1)C1CCCC1	1%
O=C(NC1CCCc2c1[nH]c1ccc(F)cc21)c1ccc(Br)o1 (configuration not stated)	-12%
COc1cccc(CCC(=O)N2CCC3(CC2)N(C)C(=O)CS3(=O)=O)c1	2%
COCC(=O)N1CCN2C(=O)c3cc(-c4ccc5c(c4)OCO5)ccc3NC(=O)[C@H]2C1	0%[70.6 µM]
Continuation.
SMILES	hNpr1 antagonist
CN1[C@@H](CCC(=O)N2CCOCC2)CNC(=O)[C@H]2NCC[C@H]21	3%[70.6 µM]
CNc1ncccc1C(=O)N1CCc2nc(-c3cn[nH]c3)[nH]c2C1	3%
CCCN1CCC(CC(=O)N2CCCC(N3CCN(c4ccc(F)cc4)CC3)C2)CC1 (configuration not stated)	10%
COCC(=O)NC1CCC12CCN(C(=O)C1CCOCC1)CC2 (configuration not stated)	5%
O=C(N[C@H]1C[C@@H]2C(=O)N[C@H]3CCN(C(=O)C4CCCC4)[C@@H]3C(=O)N2C1)c1cccs1	3%[70.6 µM]
CN1CCC(N2CCN(S(=O)(=O)c3ccccc3C(F)(F)F)CC2)C1=O (configuration not stated)	3%
COCCOc1ccnc(-c2noc([C@@H]3CCCN3Cc3ccccc3)n2)c1	0%[70.6 µM]
CC(C)CNC(=O)Cc1cccn1-c1ccc(F)cc1	1%

Of the compounds above, 13 contain an NH in an aromatic ring.
SMILES	hNpr1 antagonist
COc1ccc2[nH]c3c(c2c1)CCN(C)C31CCN(C(=O)COc2ccc(F)cc2)CC1	-16%
COc1ccccc1OC1(C(=O)O)CCN(Cc2ccc(-c3ccn[nH]3)o2)CC1	4%
O=C(c1ccccc1-n1cccn1)N1CCc2c(nc[nH]c2=O)C1	4%
Cc1cccc(-c2noc([C@@H]3Cc4nc[nH]c4CN3C(=O)c3ccccc3C(=O)O)n2)c1	4%[70.6 µM]
O=C(c1ccn[nH]1)N1C[C@@H](COc2cccnc2)[C@H](c2ccncc2)C1	0%
Cc1cccc(C(=O)N2CCCC(c3nn(-c4ccc(F)cc4)c(=O)[nH]3)C2)c1 (configuration not stated)	-2%
Cc1cccc(-c2noc([C@@H]3Cc4nc[nH]c4CN3C(=O)CCC(=O)O)n2)c1	2%[70.6 µM]
CN(CCO)C[C@@H]1CN(C(=O)c2nc3ccccc3[nH]c2=O)C[C@@H]1CO	5%
COc1ccc(C(=O)N2CCCN(c3cc(-c4ccc(Cl)cc4)[nH]n3)CC2)cc1F	?
CC1=C[C@@H](CNC(=O)c2ccnc(Cl)c2)[C@H](C(C)C)C[C@H]1Cc1nc2ccc(C)cc2[nH]1	?
CN1CCc2c([nH]c3ccccc23)C12CCN(C(=O)c1ccnn1C)CC2	0%
O=C(NC1CCCc2c1[nH]c1ccc(F)cc21)c1ccc(Br)o1 (configuration not stated)	-12%
CNc1ncccc1C(=O)N1CCc2nc(-c3cn[nH]c3)[nH]c2C1	3%

Source: PubChem

Not all compounds are listed; count on the stated rates, not on these rows.
